AID504770: growth inhibition of E. coli YBA685, primary screen, V. cholerae RctB inhibitors; E. coli YBA685 rctB-dependent plasmid, OD600 growth, 3 h; hits give low values; z-score (no concentration beside the values); actives 0.27% (n = 130,000); AID 504770, 2011;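 active = z-score under -2 on both plates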;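 note: wells of about 30 µL received 100 nL stock; score is relative to mean and SD of the test wells; the first replicate is given; strong numbers were not always called active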
Ba CapD inh: Bacillus anthracis CapD inhibitors, primary screen, biochemical, fluorescence intensity | CapD gamma-glutamyltranspeptidase (Bacillus anthracis Ames Ancestor) | purified CapD enzyme, fluorescence intensity read-out; hits give low values; some hits fall short of the stated cut | z-score (test concentration not listed) | actives 0.23% (n = 140,000) | AID 492967, 2010;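 active = z-score under -4 in either of two replicates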;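 note: stock transfer was 100 nL into about 40 µL; score is relative to mean and spread of the plate; one replicate is shown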
* = called active by the depositor; · = no result given; & = joins results of further samples. The order is random. Share with any hit: about 0.41%.

SMILES	AID504770	Ba CapD inh
O=S(=O)(Nc1ccc(CSc2ccccc2)cc1)c1ccc2c(c1)OCCO2	1.15	0.5
Nc1ccc(Cc2nc3ccc(C(=O)O)cc3[nH]2)cc1	-0.9	-0.645
Cc1[nH]c2ccccc2c1CN1CCc2ccccc2C1	-0.9	-0.08
C/C(COc1ccc(-c2csnn2)cc1)=N\NC(N)=S	1.8	-0.435
O=C1N=c2ccccc2=C1c1sc(=O)n(-c2ccccc2)c1O	0.15	-0.215
C=CCOC(=O)c1sc(NC(=O)c2sc3ccccc3c2Cl)nc1C	0.55	31.3
N#Cc1ccc(C(O)COc2ncnc3cc(Cl)ccc23)cc1 (stereo not drawn)	1.8	0.995
O=C(COc1cccc2c1CCN(Cc1ccccc1)C2=O)NCc1ccco1	-0.25	-0.68
CC(C(=O)Nc1ccccc1)N(c1ccccc1)S(C)(=O)=O (stereo not drawn)	0.9	0.58
CCOC(=O)C1=C(C)N(Cc2c(Cl)cccc2Cl)c2ccccc2S1	·	-0.39
Cc1ccc(S(=O)(=O)c2c(Cl)sc(=O)n2C)cc1	1.25	·
CCc1cc2c(cc1-c1csc(Nc3ccccc3Cl)n1)C(C)(C)CCC2(C)C	·	-0.055
O=S1(=O)C=Cc2ccc(NC(=S)Nc3ccccc3C(F)(F)F)cc21	1.45	0.705
CC1=CC2CC1C1C(=O)N(C(C)C(=O)N3c4ccccc4CC3C)C(=O)C21 (stereo not drawn)	0.4	·
Cc1ccccc1-n1nc2c(c1NC(=O)c1ccc(S(=O)(=O)N(C)C)cc1)CS(=O)(=O)C2	·	-0.315
Cc1oc2cc3c(C(=O)OCCN(C)C)c(C)oc3cc2c1C(=O)OCCN(C)C	0.15	0.135
CC(NC(=O)CCCc1nnc2n(C)c(=O)c3sccc3n12)c1ccccc1 (stereo not drawn)	1.4	0.005
Cc1cccc(OCC(O)CN2CC(C)OC(C)C2)c1 (stereo not drawn)	-0.95	-0.455
CC(C)C(C(=O)O)N1C(=O)/C(=C/c2ccccc2)SC1=S (stereo not drawn)	-1	-2.12
O=C(O)c1ccc(NC(=O)C2CC(=O)N(Cc3ccccc3)C(=Nc3ccc(F)cc3)S2)cc1 (stereo not drawn)	·	0.195
O=C(O)c1cc(-c2ccco2)nc2ccccc12	-0.35	84.7
O=C(Oc1ccccc1-c1nnco1)c1ccc(C(F)(F)F)cc1	-0.55	1.65
COc1ccc(N(C(=O)Cc2ccc(OC)c(OC)c2)C2C=CS(=O)(=O)C2)cc1 (stereo not drawn)	1.15	·
CC(NCCC(c1ccccc1)c1ccccc1)c1ccccc1 (stereo not drawn)	0	76.4&-0.09
COc1cc(C2C3=C(CC(C)(C)CC3=O)OC3=C2C(=O)CC(C)(C)C3)ccc1OC(C)=O	·	-0.215
COC(=O)/C(=C/c1ccc2c(c1)OCO2)NC(=O)c1ccc(C(C)(C)C)cc1	-0.6	3.73
CCOC(=O)C1=C(CC)NC2=C(C(=O)CCC2)C1c1ccccc1 (stereo not drawn)	-0.65	·
O=C(c1ccc2c(c1)S(=O)(=O)N=C1CCCCCN12)N1CCN(S(=O)(=O)c2ccc(F)c(F)c2)CC1	0.05	·
O=C(Nc1ccc2c(c1)OCC1CCCN21)C1=Cc2ccccc2OC1 (stereo not drawn)	-0.65	-0.435
O=C(CN1C(=O)CCC1=O)Nc1nc(-c2cccs2)cs1	1.6	·
CN1C=NS(=O)(=O)c2ccccc21	0.45	·
O=C(Nc1ccc2oc(-c3cccnc3)nc2c1)c1cccs1	-0.6	50.1
O=C(O)CCC(=O)NCc1ccc(C(=O)O)cc1	-0.5	-0.32
CC1CCCC(NC(=O)COC(=O)c2ccccc2F)C1C (stereo not drawn)	0.05	0.4
CC12c3ccccc3C(c3ccccc31)C1C(=O)N(c3ccccc3[N+](=O)[O-])C(=O)C12 (stereo not drawn)	·	-0.18
CCc1ccc(NC(=O)C(C)Sc2cccc[n+]2[O-])cc1 (stereo not drawn)	-2	0.625
Cc1nc(SCC2=C(C(=O)OC(C)C)C(c3cccc(I)c3)C(C#N)=C(N)O2)c(C#N)c(C)c1C (stereo not drawn)	·	-0.485
OCC(CO)(CO)N=Cc1c(O)ccc2ccccc12	0.2	-2.32
Cc1cc(NC(=O)[C@H](C)NC(=O)c2ccco2)ccc1Br	0.2	·
CCC1S/C(=N\S(=O)(=O)c2ccccc2)N(C2CCCCC2)C1=O (stereo not drawn)	0.05	·

Structures shown so far that have an aryl thioether with sulfur outside any ring:
SMILES	AID504770	Ba CapD inh
O=S(=O)(Nc1ccc(CSc2ccccc2)cc1)c1ccc2c(c1)OCCO2	1.15	0.5
CCc1ccc(NC(=O)C(C)Sc2cccc[n+]2[O-])cc1 (stereo not drawn)	-2	0.625
Cc1nc(SCC2=C(C(=O)OC(C)C)C(c3cccc(I)c3)C(C#N)=C(N)O2)c(C#N)c(C)c1C (stereo not drawn)	·	-0.485

Next results follow.
SMILES	AID504770	Ba CapD inh
COC(=O)c1ccc(C(=O)Nc2ccc(-c3nc4ccccc4[nH]3)cc2)cc1	-0.45	0.57
O=C1C/C(=N\NC(=S)Nc2ccc(S(=O)(=O)N3CCOCC3)cc2)c2ccccc21	0.3	·
c1ccc(COc2cccc(C3Oc4ccccc4C4CC(c5ccccc5)=NN43)c2)cc1 (stereo not drawn)	·	0.25
CC(C)(C)NC(=O)c1ccc2snnc2c1	0.15	-0.79
CCCC(=O)Nc1cc2nn(-c3ccc(C)cc3)nc2cc1C	0.15	18.9
Cc1cccc(CC(CC(=O)O)C(=O)N2CCN(C(c3ccc(F)cc3)c3ccc(F)cc3)CC2)c1 (stereo not drawn)	·	0.1
O=C1NS(=O)(=O)C(c2ccccc2)=C1O	0.05	-1.5
Nc1n[nH]c(C(=O)N/N=C/c2cccs2)n1	-1.65	·
Cc1ccc(CNC(=O)c2ccc(N3CC4CC(C3)c3cccc(=O)n3C4)c(NS(=O)(=O)c3ccc(Cl)cc3)c2)cc1 (stereo not drawn)	·	-0.54
Cc1cc(C)n(-c2nc(C(=O)O)cs2)n1	1.6	·
CCN1C/C(=N\S(=O)(=O)c2ccccc2)N(CC)C1=O	-0.25	-0.13
NC(=O)COC(=O)c1ccc2c(c1)OCO2	-0.65	·
CN(C)c1ccc(C(c2nnnn2CCOC(=O)Nc2ccc(Cl)cc2)N2CCOCC2)cc1 (stereo not drawn)	-0.9	4.64
O=C(Nc1ccc(F)cc1)c1nnsc1Sc1ccc(Cl)cc1	·	-0.71
O=C(/C=C/c1ccc2c(c1)OCO2)N/N=C/c1ccc(O)cc1	·	0.18
CC(C)(C)C(=O)CSc1nnc(-c2ccncc2)n1-c1ccccc1	-0.15	·
Cc1ccc(Sc2ncccc2COC(=O)Nc2c(C)cccc2C)cc1	·	0.08
O=C(Oc1ccc(-c2nnco2)cc1)c1sc2ccccc2c1Cl	-0.35	·
CC(=O)NS(=O)(=O)c1ccc(NC(=O)[C@@H]2CCCC[C@@H]2C(=O)O)cc1	0.4	0.035
Nc1nc(OCC(F)(F)F)nc(OCC(F)(F)F)n1	-0.75	0.085
O=C(OCc1cc(=O)n2c(n1)sc1ccccc12)c1ccccc1	0.1	·
O=C(Cc1ccc2c(c1)OCCO2)N1CCc2ccccc21	0.8	·
COc1cc(/C=C2\N=C(c3ccccc3)N(c3ccc(Cl)c(Cl)c3)C2=O)cc(OC)c1OC	·	0.165
COCc1cc(C)nc(SC)c1C#N	0.2	3.3
Cc1ccc(N2C(=O)c3ccc(C(=O)NCCN4CCOCC4)cc3C2=O)cc1	-1.2	-0.24
COc1ccccc1C1CCN(S(=O)(=O)c2ccc(F)cc2F)CC1	·	0.445
CCOC(=O)CSc1nc2c(C)ccc(C)c2cc1C#N	0.95	·
N#C/C(=C(/O)CSc1nnc(Cc2cccs2)n1C1CCCCC1)c1nc2ccccc2[nH]1	0.1	·
COc1ccc(NCc2nnc(SCC(=O)c3ccc(C)cc3)o2)cc1	-0.35	·
O=[N+]([O-])c1ccc(Nc2nc(NCc3ccco3)nc(NCc3ccco3)n2)cc1	·	-1.04
COC(=O)c1ccccc1NC(=O)C(C)C	-0.2	4.55
O=C(CN1C(=O)C2CC=CCC2C1=O)NCc1cccs1 (stereo not drawn)	1.9	·
NC(=O)c1ccccc1NS(=O)(=O)c1cccc(C(F)(F)F)c1	-0.65	2.19
NS(=O)(=O)c1cc(S(N)(=O)=O)c2cccc3c2c1NC3=O	·	47
O=C(O)C1CC1C(=O)N1CCN(c2c(Cl)cncc2Cl)CC1 (stereo not drawn)	·	0.19
CC1(COC(=O)N2CCC(O)(Cc3ccccc3)CC2)COC1	·	0.555
CCC(C)C(NS(=O)(=O)c1cccc(C(F)(F)F)c1)C(=O)NCc1ccccc1 (stereo not drawn)	-0.3	0.48
CCN(CC)c1nc2ccccc2n(Cc2cccc(OC)c2)c1=O	-0.05	·
CCCN1CCC(N(C2CC2)S(=O)(=O)c2ccc(C)cc2)CC1	·	-0.59
CC(=O)Nc1ccc(NS(=O)(=O)c2ccc(-c3csc(C)n3)s2)cc1	2.6	0.5

Arranged by formula weight (falling): some entries from above.
SMILES	AID504770	Ba CapD inh
CCC(C)C(NS(=O)(=O)c1cccc(C(F)(F)F)c1)C(=O)NCc1ccccc1 (stereo not drawn)	-0.3	0.48
O=C(O)C1CC1C(=O)N1CCN(c2c(Cl)cncc2Cl)CC1 (stereo not drawn)	·	0.19
NS(=O)(=O)c1cc(S(N)(=O)=O)c2cccc3c2c1NC3=O	·	47

Next section.
SMILES	AID504770	Ba CapD inh
CC(=O)Nc1ccc2c(c1)C1C=CCC1C(c1ccccc1[N+](=O)[O-])N2 (stereo not drawn)	·	18
COc1ccc(CCNc2ncnc3c2oc2ccccc23)cc1	-0.8	·
Cc1ccc(C(=O)COC(=O)c2c(F)cccc2F)cc1	0.3	0.385
COC(=O)Cn1c(CCS(=O)(=O)c2ccc(Br)cc2)nc2ccccc21	-0.45	0.32
CN(C(=O)COC(=O)C1CCN(S(=O)(=O)c2cccs2)CC1)c1ccccc1	0	·
O=C(c1ccccc1)N1CCN(C(=O)c2nn3c(c2Cl)NC(c2ccco2)CC3C(F)(F)F)CC1 (stereo not drawn)	·	-0.195
CCOc1cccc2cc(C(=O)NC(C)=O)c(=Nc3ccc(C(C)=O)cc3)oc12	·	-0.08
O=S1(=O)CCN(Cc2csc(-c3cccs3)n2)CC1	-0.85	8.48
Cc1cc2c(=O)oc(-c3ccc(C(C)(C)C)cc3)nc2s1	·	0.185
CCOc1ccc(N=c2scc(-c3ccco3)n2/N=C/c2c[nH]c3ccccc23)cc1	1.05	·
Cc1cn(S(=O)(=O)c2ccc(F)cc2)cn1	-0.75	-0.295
Cc1ccc(CN(C)C(=O)c2ccc(S(=O)(=O)N3CCCCC3)cc2)o1	-2.35	·
c1cc2c(cc1-c1nn[nH]n1)OCO2	-0.75	-0.88
O=[N+]([O-])c1cc(C(F)(F)F)cc([N+](=O)[O-])c1Sc1n[nH]c(C(F)(F)F)n1	·	-0.805
CC12CCC3(C[C@@H]1CCC1C2CCC2(C)C1CC[C@]2(C)O)OCCO3 (stereo partly drawn)	·	-0.24
COc1ccc(-c2c(C#N)c(N)nc3sc(C(=O)c4ccc(C)cc4)c(N)c23)cc1OC	·	-0.555
Cn1cccc1C1=C(C#N)C(c2c(Cl)cccc2Cl)C(C#N)=C(N)O1 (stereo not drawn)	-0.4	-1.3
O=C(OCc1ccco1)c1ccc(Cl)cc1	-0.7	-0.595
CCCc1cc2c(=O)c(-c3ccc(C(=O)OCC)o3)coc2cc1OC	0.45	·
O=C1C2C3C=CC(C3)C2C(=O)N1c1nccs1 (stereo not drawn)	0.45	-0.625

Some of the entries so far, as a markdown table.
| Molecule | AID504770 | Ba CapD inh |
| --- | --- | --- |
| O=C(OCc1ccco1)c1ccc(Cl)cc1 | -0.7 | -0.595 |
| CCCc1cc2c(=O)c(-c3ccc(C(=O)OCC)o3)coc2cc1OC | 0.45 | · |
| O=C1C2C3C=CC(C3)C2C(=O)N1c1nccs1 (stereo not drawn) | 0.45 | -0.625 |

Following part.
SMILES	AID504770	Ba CapD inh
COc1ccc(C(=O)[C@@H]2[C@@H](c3ccc(OC)cc3)C(C#N)(C#N)[C@H]3C=Cc4ccccc4N23)cc1	·	0.13
Cc1cc(O)c(C(C)C)cc1NC(=O)c1ccccc1	-0.65	-0.035
COc1cc([C@@H]2[C@@H](C(=O)c3ccccc3)N3c4ccc(Cl)cc4C=C[C@@H]3C2(C#N)C#N)cc(OC)c1OC	·	-0.245
Cn1c(C(C)(C)C)n[nH]c1=S	-0.3	0.65
COc1ccc(-c2coc3cc4oc(=O)c5c(c4cc23)CCC5)cc1F	-0.45	1.23
N=c1oc2ccccc2cc1C(=O)Nc1ccc(F)cc1	1.5	-0.085
O=C(CCc1c[nH]c2ccccc12)Nn1c(SCc2cccc([N+](=O)[O-])c2)nc2ccccc2c1=O	·	-0.835
O=C(Oc1c(Cl)cc(Cl)c2cccnc12)c1ccco1	-3.35*	0
N#CCN(C(=O)CSc1nc2sc3c(c2c(=O)n1Cc1ccco1)CCCC3)c1ccccc1	0	·
CCOC(=O)c1ccncc1	0.2	·

Next section; it opens with the 3 that closed the last part.
SMILES	AID504770	Ba CapD inh
O=C(Oc1c(Cl)cc(Cl)c2cccnc12)c1ccco1	-3.35*	0
N#CCN(C(=O)CSc1nc2sc3c(c2c(=O)n1Cc1ccco1)CCCC3)c1ccccc1	0	·
CCOC(=O)c1ccncc1	0.2	·
CCOC(=O)c1ccccc1NC(=O)c1ccco1	0.55	·
N#Cc1c(-c2c(Cl)cccc2Cl)cc(-c2ccc(Cl)cc2)nc1N	·	-0.55
COc1ccc(S(=O)(=O)N2CCN(Cc3ccccc3OCc3ccccc3)CC2)cc1OC	·	-0.035
CCOc1ccc2c(c1)S/C(=C/c1ccccc1O)C2=O	1.6	-0.005
CCc1ccc(C#N)cc1	0.35	·
CCN(c1ccccc1)S(=O)(=O)c1cc([N+](=O)[O-])ccc1N	·	-1.28
